miR-21 reporter – qHTS Assay for Modulators of miRNAs and/orActivators of miR-21. HeLa miR-21 FLuc reporter, luciferase, 48 h. Potency, µM (highest dose often 38.3 µM), inactives show at the highest dose reporter change, positive = more light. 340,000 tested, under 10 active. AID 2288, 2010; active = well fitted rising curve with a large enough effect; inconclusive = small, poorly fitted or top-dose-only effect; inactive = no such curve, though single readings can be large or run the other way;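 note: % of control where 0% means no effect; miR-21 action dims this reporter so a rising signal means less miR-21 action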
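Compounds were titrated across several concentrations (up to approximately 40 uM) and incubated 48 hours with HeLa miR-21-FLuc reporter cells (miR-21 target sequence downstream of FLuc, endogenous miR-21). Readout was firefly luciferase luminescence after lytic detection reagent.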
GLA inh pH 4.5 – qHTS Assay for Inhibitors of Human alpha-Galactosidase at pH 4.5 | Alpha-galactosidase A (Homo sapiens), P06280 | purified enzyme, 4-MU-alpha-Gal fluorescence, pH 4.5 | activity change, negative = inhibition, % at 105 µM | 230,000 tested, under 10 active; inconclusive = small, poorly fitted or top-dose-only inhibition, or a rising curve; inactive = flat fitted curve, though single readings scatter; no compound was filed as active;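 note: 0% = full activity with enzyme and -100% = basal without enzyme; dose as in the result columns while the protocol names 77 µM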
Target sequence (P06280 whole entry, looked up): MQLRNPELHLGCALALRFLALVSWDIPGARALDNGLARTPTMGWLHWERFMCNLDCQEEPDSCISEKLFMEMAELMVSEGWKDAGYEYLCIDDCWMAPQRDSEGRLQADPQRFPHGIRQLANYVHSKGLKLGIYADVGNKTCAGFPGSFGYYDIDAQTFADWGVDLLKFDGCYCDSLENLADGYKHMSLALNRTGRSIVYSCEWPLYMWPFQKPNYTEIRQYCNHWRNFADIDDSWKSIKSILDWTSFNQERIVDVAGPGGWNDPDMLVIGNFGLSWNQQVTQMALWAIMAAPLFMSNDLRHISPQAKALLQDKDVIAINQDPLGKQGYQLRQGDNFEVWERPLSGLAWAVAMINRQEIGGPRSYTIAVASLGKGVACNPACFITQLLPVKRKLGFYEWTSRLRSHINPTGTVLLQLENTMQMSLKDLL
Rango release inh – qHTS Assay for Inhibitors of RanGTP induced Rango (Ran-regulated importin-beta cargo) - Importin beta complex dissociation; Snurportin-1 (Homo sapiens) + GTP-binding nuclear protein Ran (Homo sapiens) + Importin …; Biochemical FRET Rango-importin beta, RanGTP-induced dissociation; Potency, µM (titrated, usually from 46.1 µM), without a hit: at the highest dose activity change, negative = inhibition; 340,000 compounds, 0.071% hits; AID 540253, 2011; active means falling FRET ratio curve, often poorly fitted, with flat reads before Ran was added; inconclusive means other falling curves, or compound fluorescence or quenching; inactive means flat or rising ratio curve;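 note: potency is the fitted concentration of half-maximal effect; % of control where 0% means no effect; nearly all actives have a fitted effect of over 45% in size; -100% = wells without RanGTP and RCC1; the record marks most hits as doubtful in a second field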
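Recombinant Rango FRET biosensor (EYFP–snurportin 1 IBB–cerulean CFP10) at 0.1 uM premixed with 0.25 uM importin beta in PBS, 1 mM DTT, 0.02% Tween-20, 0.1% BSA. Compound added 5 min; RanGTP-RCC1 (0.6 uM Ran, 2 mM GTP, 0.2 uM RCC1) then triggers release, read at 45 min.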
Rango complex inh – qHTS Assay for Inhibitors of Rango (Ran-regulated importin-beta cargo) - Importin beta complex formation | Potency, µM (titrated, usually from 92.2 µM), for the others: at the top dose inhibition of complex formation | Rango CFP/YFP FRET sensor + importin beta, 45 min | 340,000 compounds, 0.031% hits; active = rising FRET ratio curve, often small or poorly fitted; inconclusive = mostly compound fluorescence or quenching in the first reads; inactive = flat curves in all reads;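 note: potency is the fitted concentration of half-maximal effect; 0% = DMSO wells and 100% = buffer wells lacking importin beta; nearly all actives have a fitted effect of over 15% in size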
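Inhibition scored from the CFP 486 nm/YFP 530 nm FRET ratio 45 min after adding 0.125 microM importin beta to 50 nM Rango biosensor preincubated 5 min with compound (room temperature, PBS with DTT, Tween-20, BSA). No-importin wells as positive control.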
The depositor's hits bear a star; ? = inconclusive; · = not tested or not shown; & = joins results of further samples.

The first 5 compounds, to show the layout:
SMILES | miR-21 reporter | GLA inh pH 4.5 | Rango release inh | Rango complex inh
CCOc1cccc(C(=O)Nc2cnn(Cc3ccccc3)c2)c1 | -3.6% | 1.2 | 3.8% | -0.3%
CC(=O)C1=C(C)NC(SCc2ccc(C#N)cc2)=C(C#N)C1c1ccco1 (centres undefined) | -0.1% | -1.9 | -4.8% | -2.5%
CSc1ccc(C(=O)C2CCCN(S(=O)(=O)N(C)C)C2)cc1 (centres undefined) | -1.7% | -8.9 | -6.1% | 2.4%
CC(C)(C)C1CCC(=NNC(=O)c2cc3c(s2)CCCC3)CC1 (centres undefined) | 7.8% | 1.6 | -3.4% | 0.5%
C[C@H](NC(=O)c1ccco1)C(=O)NC1CCCCCC1 | · | · | -2.7% | 2.5%

The listing, repeating the preview:
SMILES | miR-21 reporter | GLA inh pH 4.5 | Rango release inh | Rango complex inh
CCOc1cccc(C(=O)Nc2cnn(Cc3ccccc3)c2)c1 | -3.6% | 1.2 | 3.8% | -0.3%
CC(=O)C1=C(C)NC(SCc2ccc(C#N)cc2)=C(C#N)C1c1ccco1 (centres undefined) | -0.1% | -1.9 | -4.8% | -2.5%
CSc1ccc(C(=O)C2CCCN(S(=O)(=O)N(C)C)C2)cc1 (centres undefined) | -1.7% | -8.9 | -6.1% | 2.4%
CC(C)(C)C1CCC(=NNC(=O)c2cc3c(s2)CCCC3)CC1 (centres undefined) | 7.8% | 1.6 | -3.4% | 0.5%
C[C@H](NC(=O)c1ccco1)C(=O)NC1CCCCCC1 | · | · | -2.7% | 2.5%
CCN(c1ccc(Cl)cc1)S(=O)(=O)c1nnc(NC(=O)C(C)C)s1 | -0.1%&4.8% | · | 5.4% | -0.7%
Cc1cccc(C(=O)O/N=C/c2ccc(Br)cc2)c1 | 3.6% | -18.1 | 24.7% | 0.5%
CN1CCCN(C(=O)CNC(=O)c2ccccc2F)CC1 | · | · | 8.0% | 0.6%
Cc1ccc(S(=O)(=O)N2CC(O)CC2C(=O)NCc2ccc3c(c2)OCO3)cc1 (centres undefined) | -3.0% | -1.4 | -3.2% | 0.4%
COc1ccc(NC2C=CS(=O)(=O)C2)c(OC)c1 (centres undefined) | 1.1% | 7.1 | -19.4% | -3.2%
Cc1cc([N+](=O)[O-])ccc1NC(=O)CCC(=O)N1CCCCC1 | 1.4% | · | 1.5% | -1.1%
C=C(C)CSc1nc2sc3c(c2c(=O)n1-c1ccccc1)CCN(C)C3 | -1.6% | · | ? | ?
CC(=O)c1ccc(NC(=S)NC(NC(=O)c2ccco2)C(Cl)(Cl)Cl)cc1 (centres undefined) | -0.7% | -0.3 | 2.2% | -0.8%
CN(CCc1ccccc1)C(=O)c1cccc(NC(=O)Cc2cccc(NC(=O)C3CCCN(C(=O)C4CCCCC4)C3)c2)c1 (centres undefined) | · | · | 0.6% | -1.1%
CN(C)S(=O)(=O)c1cccc(-c2nn(-c3ccccc3)cc2/C=C2\SC(=S)N(CC(=O)O)C2=O)c1 | 4.9% | 1.5 | 7.5% | -0.2%
Cc1ccc(NC(=O)COS(=O)c2ccc(C)cc2)cc1 (centres undefined) | -0.8% | -3.2 | 2.4% | -1.3%
O=C(NC1CCCCC1)C1CCN(c2ncccn2)CC1 | -1.9% | · | 15.9% | -0.3%
NC(=O)c1ccc(NC(=O)CSc2nnc(-c3ccccn3)n2N)cc1 | -3.1% | -3.8 | -9.0% | -0.1%
Cc1ccc(C)c(NC(=O)C2COc3ccccc3O2)c1 (centres undefined) | -38.9% | · | 12.6% | 2.3%
O=C(NCCc1nnc2ccc(NCc3ccc(Cl)cc3)nn12)c1ccccc1 | 8.5% | 4.2 | -14.6% | -4.4%
Cc1ccc(S(=O)(=O)N2CCOCC2)cc1C(=O)N1CCN(S(=O)(=O)c2ccccc2F)CC1 | · | · | 1.2% | 4.3%
COc1cc(CNC2CCCC2)c(Br)cc1OCc1ccccc1 | 0.3% | -3.4 | 3.6% | -5.5%
COC(=O)c1c(-c2ccc(C)cc2)csc1NC(=O)C1CC=CCC1C(=O)O (centres undefined) | -33.1% | -5.2 | 1.3% | -5.8%
COc1ccc(C2C(C(N)=O)=C(C)Nc3nc(-c4ccccc4)nn32)cc1OC (centres undefined) | 3.4% | -5.5 | 34.8% | ?
COc1ccc2[nH]c(C(=O)O)c(NC(=O)c3cc(OC)c(OC)c(OC)c3)c2c1 | -0.3% | · | 0.9% | 1.0%
COc1cc(OC)cc(C(=O)NNC(=O)CCNS(=O)(=O)c2ccc(C)c(C)c2)c1 | · | · | -1.4% | 2.3%
COc1cccc2cc(C(=O)N3CCc4ccccc43)c(=O)oc12 | -3.3% | 3.1 | 0.8% | 1.6%
Cn1c(/C=C/N(Cc2ccccc2)c2ccccc2)c([N+](=O)[O-])c(=O)n(C)c1=O | -3.0% | -4.0 | 26.0% | -0.1%
O=S(=O)(Nc1ccc(Cl)cn1)c1cnc(Cl)c(Br)c1 | -0.1% | 1.6 | -0.1% | -0.4%
CC(C)CNC(=O)c1ccc(C2SCC(=O)N2Cc2ccccc2)cc1 (centres undefined) | -3.3% | 6.7 | -4.4% | ?
CC1=C/C(=C(\c2cc(C)c(O)c(Br)c2)c2ccccc2S(=O)(=O)O)C=C(Br)C1=O | 26.8% | · | 0.9% | ?
Cc1c(Cl)cnc(NC(=O)COC(=O)C2CCCC2)c1Cl | · | · | -3.6% | -1.5%
O=S(=O)(Nc1ccc(Cl)cn1)c1ccc(Cl)cc1 | 0.0% | 1.3 | -1.9% | -2.2%
CC1N/C(=C\C(=O)c2ccccc2)N(O)C1(C)C (centres undefined) | -35.2% | -0.6 | -9.7% | -0.4%
COc1ccccc1COc1ccc2c(C)c(CCC(=O)O)c(=O)oc2c1C | 0.4% | · | -11.3% | -0.8%
O=C(C1=C[C@H](c2ccc(Br)cc2)C[C@H](OCCCCO)O1)N1CCN(Cc2ccccc2)CC1 | 2.9% | -1.5 | -1.7% | -1.2%
CCc1cccc(C)c1NC(=O)COC(=O)C(NS(=O)(=O)c1ccc(Cl)cc1)C(C)O (centres undefined) | -5.5% | -9.6 | -2.9% | 1.3%
CN1CCN(C(=O)c2ccc3c(=O)n4c(nc3c2)CCCCC4)CC1 | 0.9% | 0.6 | -7.2% | -3.5%
CCC(C)NC(=O)c1cn(-c2cccc(C)n2)cn1 (centres undefined) | -50.5% | 3.2 | -7.0% | -0.3%
COc1ccc(-n2nc(C(=O)NCC(=O)N3CCC(C)CC3)c3ccccc3c2=O)c(OC)c1 | -28.7% | · | -7.5% | -0.6%
c1ccc(CC2CCN(c3nnnn3-c3ccccc3)CC2)cc1 | -2.0% | -5.0 | 1.7% | 1.9%
Cc1ccc(-c2cccc(CN3CCN(C4CCN(C(C)C)CC4)C(CCO)C3)c2)o1 (centres undefined) | -21.4% | 6.8 | 3.0% | -4.4%
CCOC(=O)c1c(NC(=S)NC(=O)c2ccc(Cn3cc(Cl)cn3)o2)sc2c1CCCCC2 | -1.9% | -6.4 | 1.5% | -3.5%
O=C(Nc1nnc(CCN2CCOCC2)s1)C1CCCCC1 | -5.2% | 2.2 | 12.8% | 2.2%
CCC(=O)n1nc(NCc2ccccc2OC)nc1NCc1ccccc1OC | -0.2% | -5.8 | 7.1% | 3.3%
CCc1ccc(NC(=S)N2CCC(NC(=O)C3CCCCC3)CC2)cc1 | -2.9% | · | -0.6% | -0.7%
COc1ccc(NC(=O)c2cc(-c3ccccn3)nc3c(C)cc(C)cc23)c(C)c1 | 1.8% | · | -3.6% | -1.7%
COc1ccc2nc(NC(=O)CCN3C(=O)c4ccccc4C3=O)sc2c1 | 2.1% | -1.0 | -6.9% | 0.0%
O=C(NN1C(=O)c2ccccc2NC1c1ccoc1)c1ccc([N+](=O)[O-])cc1 (centres undefined) | -10.6% | 1.6 | 6.1% | -0.1%
CC(C)(C)C(=O)Nc1ccc(-c2nc3ccccc3c(=O)o2)cc1 | 2.5% | -1.1 | -6.3% | 4.8%
Later entries:
SMILES | miR-21 reporter | GLA inh pH 4.5 | Rango release inh | Rango complex inh
S=C(NCc1ccccn1)Nc1ccccc1Cl | -43.1% | 7.8 | 4.3% | -2.6%
Cc1cc(Nc2ccccc2)nn1C(=O)c1ccc([N+](=O)[O-])cc1 | -6.5% | 0.7 | -10.1% | 0.2%
Cc1cnc(C(=O)N2CCN(S(=O)(=O)c3cccc(Br)c3)CC2)cn1 | · | · | 0.0% | -0.2%
CCOc1ccccc1NC1=NCC(=O)N1Cc1ccc(F)cc1 | -4.8% | -1.9 | 2.3% | 1.9%
O=C(Nc1ccc(C(F)(F)F)cc1)c1csc(-c2ccncc2)n1 | 8.8% | -10.4 | 7.5% | -0.2%
CC(=O)c1c(C)[nH]c(C(=O)OCC(=O)c2c(N)n(C)c(=O)n(C)c2=O)c1C | -1.7% | 5.9 | · | ·
COc1ccc(S(=O)(=O)NCCc2cn3nc(C)c(C)nc3n2)cc1C | 1.8% | · | ? | ?
CCN1CCN(c2cc(C)c3cc(NC(=O)c4ccccc4F)ccc3n2)CC1 | -20.2%&-15.6% | -8.8 | · | ·
CCc1cc(-c2n[nH]c(=S)n2-c2cccc(C)c2)cs1 | -20.6% | 0.4 | -2.9% | 2.7%
CCN(CC)CCNC(=O)c1ccc(Cl)c(S(=O)(=O)Nc2ccc(Cl)cc2)c1 | 0.4% | 1.5 | 15.2%&3.4% | ?
CCN(CC)C(=O)C1CCN(S(=O)(=O)c2cccc3nonc23)CC1 | 0.0% | -0.4 | -7.9% | -0.7%
Cc1ccc2nc(NC(=O)C3CCN(c4ncnc5sc(C)c(C)c45)CC3)sc2c1 | -19.5% | · | 0.6% | 1.3%
O=C(CN1CCN(c2ccc(F)cc2)CC1)Nc1ccc2c(c1)OCCO2 | -0.3% | · | -14.8% | 1.2%
O=C1CC(=O)C(n2cncn2)C(c2cccc(Cl)c2)C1 (centres undefined) | 2.0% | -5.3 | 0.1% | -0.3%
O=C(NC(=S)N1CCN(C/C=C/c2ccccc2)CC1)c1ccc(F)cc1 | 15.4% | -11.1 | -5.3% | -0.3%
COc1ccc(C2CC(c3ccccc3)=NN2c2ccc(S(N)(=O)=O)cc2)cc1 (centres undefined) | -3.2% | ? | -25.5% | ?
COc1ccc2c(c1)CCc1c(C(=O)NCC(C)C)noc1-2 | -44.0% | -3.3 | 24.7% | 0.6%
CNC(=S)NNC(=O)c1sc2cc(C(F)(F)F)cnc2c1-c1cccnc1 | -2.1% | 0.9 | 33.6% | 7.0%
COc1cc2c(cc1OC)CN(CC(=O)Nc1ccccc1C(=O)NC1CC1)CC2 | · | · | 0.0% | -0.4%
O=C(Nc1ccc(NC(=O)c2ccc3c(c2)OCCO3)cc1)c1ccccc1 | -13.8% | · | -0.4% | -0.1%
CN1C(=O)N(CN2CCCCC2)C2C1N(C)C(=O)N2CN1CCCCC1 (centres undefined) | -3.8% | 5.3 | -5.5% | -2.1%
CC1(c2ccccc2Cl)NC(=O)N(CC(=O)Nc2ccc3c(c2)OCO3)C1=O (centres undefined) | 5.7% | 17.0 | 0.2% | 0.5%
Cc1ccc(NC(=O)CN2C(=O)CC(C)S(=O)(=O)c3ccccc32)cc1 (centres undefined) | -4.8% | · | -0.5% | -2.9%
CCCCC(=O)NS(=O)(=O)c1ccc(N=NN2CCCCC2)cc1 | -17.4% | 1.0 | 6.2% | 0.5%
COc1ccc(Cl)cc1C(=O)N1CCN(Cc2ccc3c(c2)OCO3)CC1 | 6.7% | · | 1.8% | ?
O=C(O)c1ccc(Oc2ccc(S(=O)(=O)c3ccc(C(=O)O)c(C(=O)O)c3)cc2)cc1 | -0.7% | · | 0.1% | -2.3%
Cc1ccc(NC(=O)CN2C(=O)S/C(=C\c3cccn3C)C2=O)cc1 | 2.3% | -2.6 | ? | ?
COc1ccc(NS(=O)(=O)c2ccc(NS(=O)(=O)c3ccc(SC)cc3)cc2)c(OC)c1 | 1.7% | -8.6 | -11.0% | 6.2%

These rows are one share of the data, so the mix of outcomes need not match the whole.
